Screens: PubChem, several laboratories
MLL AF4-AF9 inh = inhibitors of AF4 peptide binding to AF9, primary screen, biochemical, AlphaScreen, biotin-AF4 peptide, FLAG-AF9, single point; inhibition, % at 10 µM; hit rate 0.47% among 350,000;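 active = every replicate reaching a set inhibition limit, whatever the replicate mean, cut at about 25% in these data; inconclusive = mean inhibition reaches that limit but some replicates miss it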;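 also: 0% = plate neutral control median and 100% = total signal loss; the record names both 10 and 1 µM as test concentration; the first replicate is given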
Target sequence (P42568 whole entry, looked up): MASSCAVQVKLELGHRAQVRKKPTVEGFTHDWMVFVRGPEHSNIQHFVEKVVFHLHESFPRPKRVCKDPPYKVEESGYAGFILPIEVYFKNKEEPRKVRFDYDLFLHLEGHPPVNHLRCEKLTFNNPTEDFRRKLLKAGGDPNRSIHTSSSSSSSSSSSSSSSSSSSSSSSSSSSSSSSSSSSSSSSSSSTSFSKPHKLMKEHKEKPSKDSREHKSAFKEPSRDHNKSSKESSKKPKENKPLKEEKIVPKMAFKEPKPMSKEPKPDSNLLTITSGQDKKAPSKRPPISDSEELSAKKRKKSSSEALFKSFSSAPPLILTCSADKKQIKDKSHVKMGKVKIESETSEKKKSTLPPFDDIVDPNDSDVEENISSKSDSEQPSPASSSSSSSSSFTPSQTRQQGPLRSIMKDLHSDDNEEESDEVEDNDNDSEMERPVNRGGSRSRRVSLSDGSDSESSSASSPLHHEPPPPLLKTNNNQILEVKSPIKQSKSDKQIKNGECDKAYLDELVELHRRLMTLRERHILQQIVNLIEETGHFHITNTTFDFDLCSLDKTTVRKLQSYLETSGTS
Vif TR-FRET = inhibitors of Vif binding to APOBEC3G peptide, primary screen, biochemical, TR-FRET, GST-Vif 1-94, biotin-A3G peptide, dose response retest (AID 1117319). Virion infectivity factor (Human immunodeficiency virus type 1 group M subtype B (isolate …. TR-FRET GST-Vif / biotin-A3G peptide binding; higher % means a stronger effect; test concentration not given here; strong numbers were not always called active. inhibition, %, or IC50 in µM where a hit was titrated. hit rate 0.57% among 260,000;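 active = above the screen mean plus three standard deviations and confirmed in dose response; inconclusive = results disagree or hit not tested in dose response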;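 also: Vif residues 1-94 fused to GST binding biotinylated APOBEC3G peptide 110-148; 0% = full assay without inhibitor and 100% = GST in place of GST-Vif; retest series ran down from 100 µM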
Bfl-1 A1 inh = caspase 3/7 activation in MEF A1-2A-BIM cells, primary screen, A1 inhibitor project, cell-based, luminescence, HTS. Caspase-Glo 3/7 luminescence, 3 h; percent of clofoctol response, vehicle zero. caspase activation, % (test concentration not listed). hit rate 0.066% among 330,000;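 active = over half of replicate activation scores above 10%, or exactly half above 10 with the replicate mean above 10; inconclusive = replicate mean below 10 yet half the replicates above 10; inactive = over half of replicates below 10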;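 also: wells of about 30 µL received 50 nL stock; many hits fall short of the cut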
Calb FLC = C. albicans growth inhibition with fluconazole, primary screen, CaCi-2 strain, Alamar Blue fluorescence | C. albicans CaCi-2 (fluconazole-resistant clinical isolate) + fluconazole, 48 h | AID 1979, 2009 | hit rate 0.57% among 300,000 | growth inhibition, % (test concentration not listed);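 active = most replicates above 75%; inconclusive = exactly half above 75%; inactive = most below 75%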;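 also: all wells also contain fluconazole at 8 µg/ml as a sub-toxic cotreatment; 0% = median of DMSO wells and 100% = median of geldanamycin control wells; wells of about 8 µL received 7.5 nL stock; the first replicate is given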
RanGTP-Impb inh = inhibitors of RanGTP-importin-beta interaction, primary screen, biochemical, FRET, CFP-Ran, YFP-importin-beta, homogeneous; Ran GTPase (GTP-bound) - importin-beta complex; cell-free CFP-Ran/YFP-importin-beta FRET ratio; inhibition, % (no concentration beside the values); hit rate 1.1% among 300,000; AID 2216, 2009;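 active = most replicates above 15%; inconclusive = exactly half above 15%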;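 also: 0% = DMSO wells and 100% = Ran loaded with GDP instead of GTP; wells of about 40 µL received 100 nL stock; the first replicate is given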
LANA-H2A inh = blockers of LANA interaction with H2A/H2B – biochemical, FP readout, HTS, primary screen | Protein LANA1 (Human herpesvirus 8 type P (isolate GK18)), Q9QR71 | cell-free LANA-H2A/H2B peptide, fluorescence polarization | inhibition, % (test concentration not listed) | hit rate 0.6% among 320,000 | AID 2629, 2010; in the data active = inhibition mostly above about 10%, no sharp cut-off; inactive = mostly below about 6.7%;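 also: stock transfer was 7.5 nL into about 10 µL; 0% = median of vehicle wells and 100% = median of positive control wells; one replicate is shown; the record names a cut of 25% in any replicate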
Beta apoptosis = inhibitors of cytokine-induced beta cell apoptosis, primary screen, luminescence; INS-1E cytokine-induced death, ATP luminescence, 48 h; percent of positive-control rescue, neutral wells zero; protection from apoptosis, % (test concentration not listed); hit rate 0.8% among 300,000; AID 435005, 2010;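 active = all replicates at 75% or more, or half of them and the mean; inconclusive = half reach 75% but not the mean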;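 also: 0% = cytokine-treated negative control wells and 100% = positive control rescue; higher means more ATP so stronger rescue from cytokine killing; wells of about 40 µL received 100 nL stock; the first replicate is given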
T cruzi repl = inhibitors of intracellular T. cruzi growth, primary screen, luminescence, NIH3T3 host cells | T. cruzi beta-gal in NIH3T3, 90 h | inhibition, % (concentration not given with the values) | hit rate 1.4% among 300,000;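 active = mean inhibition across valid replicates above about 55%, limit read from the data; inconclusive = mean below that limit but half or more replicates reach it; inactive = mean below it, under half of replicates reach it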;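 also: signal also drops with host cell toxicity which is not excluded here; 0% = plate median of DMSO wells and 100% = zero luminescence signal; higher percent means less beta-gal luminescence so fewer parasites; stock transfer was 50 nL into about 50 µL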
Active calls of the source: *; ? = inconclusive; / = no result given; & = joins results of further samples.

SMILES | MLL AF4-AF9 inh | Vif TR-FRET | Bfl-1 A1 inh | Calb FLC | RanGTP-Impb inh | LANA-H2A inh | Beta apoptosis | T cruzi repl
O=C(CC1C(=O)NCCN1Cc1cccc(Oc2ccccc2)c1)NCCc1ccncc1 (stereo not given) | -5.3 | -4% | 0.7 | -5 | -0.2 | -0.5 | -5 | 5
O=C(c1ccco1)N1CCCN(Cc2nc(-c3cccs3)no2)CC1 | 0.3 | -2% | 0.6 | -7 | 1.6 | -2.6 | 0 | -2
CC(=C/c1ccc(C(C)C)cc1)/C=N/NC(=O)c1ccncc1 | 3.0 | / | -0.8 | ? | 1.9 | -8.7 | 2 | -6
CCCCn1c(CN2CCN(C(=O)OCC)CC2)nc2c1c(=O)n(C)c(=O)n2C | / | 0% | 0.1 | 102* | -1.8 | -4.1 | 0 | -2
Cc1ccc(S(=O)(=O)N2CCC(=O)N(C(COCc3ccc(Cl)cc3)Cc3ccccc3)CC2)cc1 (stereo not given) | -4.2 | -2% | -0.4 | -2 | 5.1 | -0.8 | 49 | 27
Cc1cnc(C(=O)OCC(=O)NC(=O)NC(C)C)cn1 | / | -4% | 0.0 | 5 | 2.9 | -1.0 | -4 | -4
S=c1[nH]nc(-c2ccc3ccccc3n2)n1Cc1ccccc1 | / | -12% | 0.0 | 2 | -0.3 | -1.5 | 5 | 13
CCC(CC)c1nnc(NC(=O)CCc2ccccc2OC)s1 | -9.5 | / | 0.3 | -3 | 6.4 | -1.0 | 2 | -6
CCOc1ccc(Br)cc1/C=N/O | -74 | 65% | -0.2 | -11 | 5.0 | 1.4 | -6 | 10
COc1ccccc1OC(C)C(=O)Nc1nc(-c2ccc(S(=O)(=O)N3CCOCC3)cc2)cs1 (stereo not given) | / | -8% | 0.8 | -5 | -4.5 | -2.8 | 0 | 20
CCOC(=O)c1ccc(CNC(=O)Cn2nnc(-c3cccc(C)c3)n2)o1 | / | -6% | 1.9 | -1 | 1.2 | 0.7 | -10 | -1
Cc1cc(CCN2CCC(=O)NC2=S)ccc1OC(C)C | / | 6% | 0.5 | -1 | 1.4 | -0.1 | -8 | -22
O=c1c2c(-c3ccccc3)csc2nc2n1CCC2 | / | 3% | 0.4 | -6 | 1.0 | 9.0 | -1 | 4
COc1cccc(C2NC(CCSC)(C(=O)O)C3C(=O)N(C(C)C)C(=O)C23)c1O (stereo not given) | 5.7 | -1% | -0.3 | 21 | 0.6 | -0.9 | / | -7
O=c1[nH]nc(-c2ccc(F)cc2)cc1Cc1ccccc1 | -3.0 | 0% | 0.4 | 1 | -1.6 | -1.4 | -4 | 9
O=C(CSc1nnc2ccccn12)NNC(=O)c1cccc([N+](=O)[O-])c1 | 4.3 | -9% | 0.2 | / | / | 0.2 | 3 | /
COc1ccccc1C(=O)Nc1cc2cc(Br)ccc2oc1=O | -1.8 | -3% | -0.6 | -11 | -0.3 | -14 | 5 | 12
CSc1nnc(C2CCN(CC(=O)Nc3ccccc3N3CCOCC3)CC2)n1C(C)C | 0.9 | / | 0.4 | 1 | 3.6 | 1.0 | 2 | 14
COCCN1CCN(C(=O)c2ccc3oc(CCCc4ccccc4)nc3c2)CC1 | 0.3 | / | -1.1 | -7 | -1.3 | 0.1 | 0 | -10
Cc1ccc(NC(=O)C2C3C=CC4(O3)C2C(=O)N(CCCN2CCCCC2)C4C(=O)NC2CCCCC2)cc1C (stereo not given) | 0.4 | / | -0.6 | -1 | 1.1 | -6.3 | -4 | 1

Part of the list above, reformatted.
COc1cccc(C2NC(CCSC)(C(=O)O)C3C(=O)N(C(C)C)C(=O)C23)c1O (stereo not given)
  MLL AF4-AF9 inh = 5.7
  Vif TR-FRET = -1%
  Bfl-1 A1 inh = -0.3
  Calb FLC = 21
  RanGTP-Impb inh = 0.6
  LANA-H2A inh = -0.9
  Beta apoptosis = /
  T cruzi repl = -7

O=c1[nH]nc(-c2ccc(F)cc2)cc1Cc1ccccc1
  MLL AF4-AF9 inh = -3.0
  Vif TR-FRET = 0%
  Bfl-1 A1 inh = 0.4
  Calb FLC = 1
  RanGTP-Impb inh = -1.6
  LANA-H2A inh = -1.4
  Beta apoptosis = -4
  T cruzi repl = 9

O=C(CSc1nnc2ccccn12)NNC(=O)c1cccc([N+](=O)[O-])c1
  MLL AF4-AF9 inh = 4.3
  Vif TR-FRET = -9%
  Bfl-1 A1 inh = 0.2
  Calb FLC = /
  RanGTP-Impb inh = /
  LANA-H2A inh = 0.2
  Beta apoptosis = 3
  T cruzi repl = /

COc1ccccc1C(=O)Nc1cc2cc(Br)ccc2oc1=O
  MLL AF4-AF9 inh = -1.8
  Vif TR-FRET = -3%
  Bfl-1 A1 inh = -0.6
  Calb FLC = -11
  RanGTP-Impb inh = -0.3
  LANA-H2A inh = -14
  Beta apoptosis = 5
  T cruzi repl = 12

Sorted by molar mass (largest number first): part of the list above
SMILES | MLL AF4-AF9 inh | Vif TR-FRET | Bfl-1 A1 inh | Calb FLC | RanGTP-Impb inh | LANA-H2A inh | Beta apoptosis | T cruzi repl
COCCN1CCN(C(=O)c2ccc3oc(CCCc4ccccc4)nc3c2)CC1 | 0.3 | / | -1.1 | -7 | -1.3 | 0.1 | 0 | -10
CC(=C/c1ccc(C(C)C)cc1)/C=N/NC(=O)c1ccncc1 | 3.0 | / | -0.8 | ? | 1.9 | -8.7 | 2 | -6
O=c1c2c(-c3ccccc3)csc2nc2n1CCC2 | / | 3% | 0.4 | -6 | 1.0 | 9.0 | -1 | 4

Compound profiles, as listed above. Values in the order: MLL AF4-AF9 inh, Vif TR-FRET, Bfl-1 A1 inh, Calb FLC, RanGTP-Impb inh, LANA-H2A inh, Beta apoptosis, T cruzi repl
Entry for Cc1ccc(NC(=O)C2C3C=CC4(O3)C2C(=O)N(CCCN2CCCCC2)C4C(=O)NC2CCCCC2)cc1C (stereo not given) = 0.4, /, -0.6, -1, 1.1, -6.3, -4, 1
Entry for COc1ccccc1OC(C)C(=O)Nc1nc(-c2ccc(S(=O)(=O)N3CCOCC3)cc2)cs1 (stereo not given) = /, -8%, 0.8, -5, -4.5, -2.8, 0, 20
Entry for CC(=C/c1ccc(C(C)C)cc1)/C=N/NC(=O)c1ccncc1 = 3.0, /, -0.8, ?, 1.9, -8.7, 2, -6

Further structures.
SMILES | MLL AF4-AF9 inh | Vif TR-FRET | Bfl-1 A1 inh | Calb FLC | RanGTP-Impb inh | LANA-H2A inh | Beta apoptosis | T cruzi repl
O=C(c1cccc(F)c1)N1CCN(C(=O)C2CC2)CC1 | / | 0% | 0.4 | 4 | -3.0 | -2.0 | 0 | -5
C=CCOC(=O)C1=C[C@H](c2coc3ccccc3c2=O)C[C@H](OCCCCO)O1 | -2.5&-0.9 | / | -0.3 | 5 | -4.2 | 0.3 | -7 | -7
COc1ccc(Cl)cc1-c1nc(-c2ccc(Br)o2)no1 | 1.6 | 2% | -0.1 | 7 | 10 | -4.8 | 3 | -10
COc1c2c(cc3oc(CO[C@@H]4O[C@H](CO)[C@@H](O)[C@H](O)[C@H]4O)cc(=O)c13)O[C@H](C(C)(C)O)C2 | -7.9 | / | 0.2 | / | / | 2.5 | -7 | /
Cc1ccc(-c2nnc(COC(=O)c3ccco3)o2)cc1 | -8.3 | 1% | -5.4 | -9 | -1.4 | -0.8 | -3 | -1
O=C(Nc1nc2c(s1)C(=O)CCC2)c1ccccc1 | / | 3% | -9.1 | -13 | 1.8 | -1.2 | 11 | -12
CCC(CO)NC(=O)c1ccccc1C(F)(F)F (stereo not given) | 4.6 | / | -0.5 | 3 | 2.1 | -0.2 | -2 | -14
CCN1CCN(CCCNC(=O)Cn2cc3c(n2)CCCC3)CC1 | -5.7 | -3% | 0.5 | -13 | ? | -1.6 | -1 | -2
COc1ccc(C=O)cc1OC(=O)C1(C)Cc2ccccc2C(=O)O1 (stereo not given) | 6.8 | / | 0.3 | 4 | -1.1 | 6.8 | 3 | -12
O=C(c1ccco1)N1CCN(C(=O)c2oc(=O)c3ccccc3c2-c2ccccc2)CC1 | -1.5 | 0% | 0.0 | 4 | 2.1 | 4.1 | -1 | 7
CC1CCN(S(=O)(=O)c2ccc3c(c2)N(CC(=O)NCCCN2CCCC(C)C2)C(=O)CS3)CC1 (stereo not given) | 1.9 | -2% | -0.4 | -1 | -0.5 | 1.2 | -7 | 23
CCCC1=C(C(=O)OCC)C(c2cc(Cl)cc(OC)c2OCc2ccccc2)NC(=O)N1 (stereo not given) | / | 6% | -0.1 | 2 | 0.9 | -6.4 | 6 | 54
CC1=C(C)SC(=C(C#N)c2nnc(N3CCOCC3)n2-c2ccccc2)S1 | -1.0 | / | -0.1 | 11 | 0.1 | 0.8 | 0 | 17
